# From PubChem BioAssay
# GSK3B inh – human GSK3beta kinase inhibitors, primary screen, biochemical, cell-free homogeneous, HTS. Glycogen synthase kinase-3 beta (Homo sapiens), P49841. GST-GSK3beta kinase, ADP-Glo luminescence, 60 min; active compounds read low. activity score (negative = inhibition), % at 10 µM. 0.038% of 300,000 active. AID 2097, 2009;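 active means more than half of replicate wells score below -50%, meaning over 50% inhibition versus plate controls; inconclusive means some replicates but at most half score below -50%; inactive means no replicate scores below -50%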;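 further: 0% = median DMSO wells and -100% = median GW8510 positive control wells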
# Target sequence (P49841 whole entry, looked up): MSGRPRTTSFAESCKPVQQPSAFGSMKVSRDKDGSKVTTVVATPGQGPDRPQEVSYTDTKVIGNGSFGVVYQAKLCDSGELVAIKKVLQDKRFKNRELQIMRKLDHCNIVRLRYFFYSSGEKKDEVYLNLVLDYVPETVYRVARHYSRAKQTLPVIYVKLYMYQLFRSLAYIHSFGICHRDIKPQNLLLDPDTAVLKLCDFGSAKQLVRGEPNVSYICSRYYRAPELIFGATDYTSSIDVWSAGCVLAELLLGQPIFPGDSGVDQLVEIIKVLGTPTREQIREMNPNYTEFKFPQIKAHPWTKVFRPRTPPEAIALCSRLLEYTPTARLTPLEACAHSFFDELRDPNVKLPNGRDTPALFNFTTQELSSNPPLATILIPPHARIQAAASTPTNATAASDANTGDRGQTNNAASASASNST
#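 Assay system: GST-fused GSK3beta enzyme, cell-free / Medium: Tris pH 7.5 buffer with MgCl2, DTT, BSA, heparin / Also added: peptide substrate plus 25 µM ATP (final) / Compound: 10 µM single point / Timing: kinase reaction with compound 60 min at room temperature / Detection: ADP-Glo luminescence / Benchmarks: DMSO neutral wells and GW8510 at 20 µM as positive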
# aSyn UTR inh – MLPCN primary screen, SNCA 5' untranslated region | alpha-synuclein 5'UTR reporter, inhibitor activity | inhibition, % (tested at 7.5 µM) | 0.82% of 300,000 active; in the data active means inhibition above about 60%; inconclusive means no clear call, values can overlap the other calls;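 further: H4 neuroglioblastoma cells stably carrying SNCA 5'UTR luciferase fusion; 0% = DMSO wells and 100% = positive control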
# GSK3 alpha inh – blockers of GSK3A enzyme activity – biochemical, luminescence, cell-free homogeneous, HTS, primary screen | 0.1% of 320,000 active | GSK-3 alpha kinase, ADP-Glo luminescence, 60 min | Glycogen synthase kinase-3 alpha (Homo sapiens), P49840 | inhibition, % at 10 µM | AID 2650, 2010;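 in the data active means inhibition above about 50%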;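 further: GST-tagged GSK-3 alpha with peptide substrate and 25 µM ATP; 0% = DMSO neutral wells and 100% = GW8510 positive control wells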
# Target sequence (P49840 whole entry, looked up): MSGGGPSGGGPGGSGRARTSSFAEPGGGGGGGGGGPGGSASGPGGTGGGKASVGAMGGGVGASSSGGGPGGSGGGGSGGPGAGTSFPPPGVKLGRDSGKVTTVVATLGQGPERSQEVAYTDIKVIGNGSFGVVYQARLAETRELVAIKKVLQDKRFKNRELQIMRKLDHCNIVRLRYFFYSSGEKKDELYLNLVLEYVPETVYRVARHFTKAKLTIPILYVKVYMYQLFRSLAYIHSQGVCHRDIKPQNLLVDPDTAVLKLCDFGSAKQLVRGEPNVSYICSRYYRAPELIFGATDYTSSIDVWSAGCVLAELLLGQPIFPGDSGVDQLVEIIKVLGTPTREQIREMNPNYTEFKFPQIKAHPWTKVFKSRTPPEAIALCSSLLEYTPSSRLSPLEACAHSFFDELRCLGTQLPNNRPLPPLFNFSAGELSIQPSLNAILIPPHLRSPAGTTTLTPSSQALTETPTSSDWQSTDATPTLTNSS
# HSP90 refold inh – HSP90 inhibitors, primary screen, cell lysate, luminescence. Heat shock protein HSP 90 (rabbit reticulocyte lysate; luciferase refolding). Rabbit reticulocyte lysate, luciferase refolding luminescence, 3 h. inhibition, % at 5.6 µM. 0.91% of 290,000 active;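 active means inhibition above the screen-wide mean plus 3 SD, computed separately per campaign, cut at about 16% in these data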;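 further: 0% = DMSO wells and 100% = 60 µM geldanamycin wells; inhibitors lower the luminescence because luciferase stays unfolded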
# AI-2 QS modul – Vibrio harveyi AI-2 quorum sensing modulators, primary screen, JMH597 strain, luminescence/OD600 ratio. Vibrio harveyi JMH597 AI-2 luminescence/OD600 ratio, 9 h; active compounds read low; strain lacks LuxN and CqsS sensors; 0 = neutral-control median. activity change, % at 7.5 µM. 0.4% of 300,000 active. AID 2094, 2009; in the data active means activity change below about -75%, passing the limit was not always enough; inconclusive means no clear call, values can overlap the other calls;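 further: luminescence divided by OD600 gain over 9 h not by final OD600 alone; inactives centre near 13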
# HSF1 activator – HSF-1 activators, primary screen, NIH3T3-HGL cells, MG132 stress, luminescence, single point | 1.7% of 300,000 active | NIH3T3-HGL HSF-1 luciferase reporter, 8 h; 100% = twice DMSO control signal | activation, % at 9 µM;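 active means mean replicate activation of at least 50% with a set share of replicates each reaching 50%; inconclusive means only one of those two conditions met; inactive means mean below 50% and too few replicates reaching it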;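 further: 0% = median of the neutral control wells and 100% = twice that signal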
# HSF1 inh – HSF1 inhibitors in luciferase reporter cells, primary screen, cell-based, NIH3T3, luminescence; NIH3T3-HGL HSE-luciferase, MG132-induced, luminescence 8 h; active compounds read low; 0.77% of 300,000 active; activity change, negative = inhibition, % at 7.5 µM (by protocol); AID 2098, 2009;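 active means more than half of replicate wells show activity change below -50%, luminescence cut by over half; inconclusive means some wells, but at most half, below -50%; inactive means no replicate well below -50%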;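 further: luciferase reports HSF-1 transcriptional activity via heat shock element; 0% = median of DMSO wells and -100% = zero luminescence signal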
# KLF5 inhibitor – KLF5 expression inhibitors, primary screen, DLD-1 cells, luminescence; AID 1700, 2009; inhibition, % at 5 µM; DLD-1 KLF5 promoter-luciferase reporter; 0.23% of 290,000 active;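 active means inhibition above a per-plate limit of that plate's mean compound inhibition plus 3 SD, cut at about 60% in these data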;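 further: 0% = DMSO wells and 100% = LY294002 at 200 µM; higher means less KLF5 promoter-driven luciferase light; inactives centre near -14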
# IEC-6 cytotox – cytotoxicity in IEC-6 intestinal epithelial cells, primary screen, cytotoxicity control for KLF5 inhibitor project, cell-based, luminescence; AID 1825, 2009; inhibition, % at 5 µM; IEC-6 cytotoxicity, luminescence viability; 0.78% of 290,000 active; in the data active means inhibition above about 22%;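 further: 0% = plate median of test compound wells and 100% = cytotoxic reference compound wells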
# * marks the source's active call; other numbers are inactive results; ? = inconclusive; nt = not tested or not shown; & = joins results of further samples. The list is partial; rates above refer to the full screens.
SMILES,GSK3B inh,aSyn UTR inh,GSK3 alpha inh,HSP90 refold inh,AI-2 QS modul,HSF1 activator,HSF1 inh,KLF5 inhibitor,IEC-6 cytotox
Cc1cc(N/C=C/C(=O)c2cccc3ccccc23)no1,-1,-54,-2,-1,6,12,10,-14,2
C=CCN(C(=O)CCC(=O)O)C1CC(=O)N(c2ccc(OCCC)cc2)C1=O (stereo unspecified),2,-5,-2,5,30,0,-6,3,6
CCOC(=O)CNC(=O)CNC(=O)c1ccc(OC)cc1,-4,10,nt,0,23,-4,-4,-25,-4
COC(=O)CSc1nc(N)nc(C)c1Br,0,6,-1,2,38,1,-2,-39,2
COc1ccccc1-n1c(=O)c2c3c(sc2n2c(SC(C)C)nnc12)CCC3,0,-8,-2,-2,22,4,12,0,4
Cn1c(=O)n(CCc2ccccc2)c(=O)c2c1ncn2Cc1ccccc1,-2,-20,0,-2,15,1,11,-27,-2
c1ccc(-n2ncc3c(NCC4CCCO4)ncnc32)cc1 (stereo unspecified),-7,-132,2,-3,8,41,26,-55,1
O=C(C1=C(O)C(=O)N(CCCN2CCOCC2)C1c1ccccn1)c1cc2ccccc2o1 (stereo unspecified),0,1,-1,-3,-1,-2,-2,-12,-3
Cc1cc(NCCNC2=CC(=O)CCC2)nc2ccccc12,-1,-10,0,-1,21,12,2,7,7
COc1ccccc1C1(CC(=O)N2CCOCC2)CCOC(C(C)C)C1 (stereo unspecified),0,6,0,2,28,0,4,5,-1
NS(=O)(=O)c1cc(C2(O)NC(=O)c3ccccc32)ccc1Cl (stereo unspecified),-1,-6,-1,5,20,-3,0,-17,2
CC(Oc1ccccc1)C(=O)NC1C(=O)N2C1SC(C)(C)C2C(=O)O (stereo unspecified),-2,2,3,-3,12,6,-2,-15,4
COc1ccc(C2CC(=O)C(C=NCCN3CCOCC3)=C(O)C2)cc1 (stereo unspecified),2,25,-3,5,4,1,0,-3,0
COc1cc(C2C(C#N)=C(N)Oc3cc(C)n(CCN4CCOCC4)c(=O)c32)cc(OC)c1OC (stereo unspecified),2,14,nt,-2,82,1,-1,-17,-2
CCOC(=O)CC(=O)CSc1nc2c(cc1C#N)CCCCCC2,3,36,-1,nt,24,-26,-6,nt,nt
CCc1cc2c(=O)c(-c3cscn3)coc2cc1O,-4,-139,0,-3,15,20,18,-48,0
CCN(CC)CCN1C(=O)C(O)=C(C(=O)c2ccco2)C1c1ccccn1 (stereo unspecified),0,-3,-1,2,-14,-7,0,-27,0
CCOC(=O)c1[nH]c2cc3c(cc2c1NC(=O)CN1CCCCC1C)OCO3 (stereo unspecified),1,-4,-12,4,6,22,0,9,4
Cc1ccc(-c2ccccc2NC(=O)C2C3C=CC(C3)C2C(=O)O)o1 (stereo unspecified),2,-13,-2,0,-18,7,4,-33,-4
CNC(CC(C)C)C(=O)NC1C(=O)NC(CC(N)=O)C(=O)NC2C(=O)NC3C(=O)NC(C(=O)NC(C(=O)O)c4cc(O)cc(O)c4-c4cc3ccc4O)C(O)c3ccc(c(Cl)c3)Oc3cc2cc(c3OC2OC(CO)C(O)C(O)C2OC2CC(C)(N)C(O)C(C)O2)Oc2ccc(cc2Cl)C1O (stereo unspecified),0,-13,-3,nt,13,-9,-5,nt,nt

# Some of the entries above in another layout.
# The line under a structure holds: GSK3B inh	aSyn UTR inh	GSK3 alpha inh	HSP90 refold inh	AI-2 QS modul	HSF1 activator	HSF1 inh	KLF5 inhibitor	IEC-6 cytotox
CCOC(=O)CNC(=O)CNC(=O)c1ccc(OC)cc1
  -4	10	nt	0	23	-4	-4	-25	-4
Cc1cc(NCCNC2=CC(=O)CCC2)nc2ccccc12
  -1	-10	0	-1	21	12	2	7	7
Cn1c(=O)n(CCc2ccccc2)c(=O)c2c1ncn2Cc1ccccc1
  -2	-20	0	-2	15	1	11	-27	-2
O=C(C1=C(O)C(=O)N(CCCN2CCOCC2)C1c1ccccn1)c1cc2ccccc2o1 (stereo unspecified)
  0	1	-1	-3	-1	-2	-2	-12	-3
CCc1cc2c(=O)c(-c3cscn3)coc2cc1O
  -4	-139	0	-3	15	20	18	-48	0
Cc1ccc(-c2ccccc2NC(=O)C2C3C=CC(C3)C2C(=O)O)o1 (stereo unspecified)
  2	-13	-2	0	-18	7	4	-33	-4

# Other entries.
SMILES,GSK3B inh,aSyn UTR inh,GSK3 alpha inh,HSP90 refold inh,AI-2 QS modul,HSF1 activator,HSF1 inh,KLF5 inhibitor,IEC-6 cytotox
N#CC1=C(N)NC(SCc2ccc(Cl)cc2)=C(C#N)C12CCCCC2,1,-1,0,4,29,35,10,-11,9
CC(C)(C)NCC(=O)c1c[nH]c2ccccc12,1,7,0,-1,-5,-29,-14,7,-2
CC(=O)c1c(OCC(=O)O)ccc2c(C)cc(=O)oc12,-5,-1,0,0,21,-5,-10,-9,1
O=c1cc(-c2ccc(O)cc2)oc2cc(O)cc(O)c12,0,-269,8,nt,18,7,7,nt,nt
Cc1cccc(N)c1SC1CCCCC1O (stereo unspecified),0,-3,-7,-6,2,-10,3,-16,-3
N[C@@H](Cc1ccc(O)c(I)c1)C(=O)O,-9,2,-1,-2,-5,-2,1,-19,1
CN1CCC2(CC1)C1CN(C)CC=C1C(C#N)=C(N)C2(C#N)C#N (stereo unspecified),-22&-5,9&17,7,0&2,25&35,36&2,0&-3,-8&-7,-3&2
COc1cccc(-c2nc(N3CCCCC3)c3ccccc3n2)c1O,1,15,0,nt,10,2,-7,nt,nt
CC(C)CCNc1nc2c(cc1C#N)COC(C)(C)C2,2,14,2,0,17,-14,1,-40,-1
CN1CCc2c(c3ccccc3n2Cc2ccccc2)C1,0,-14,0,-1,31,11,3,-14,4
O=C(/C=C/c1ccc(O)cc1)c1ccc(O)cc1O,2,-244,-1,-1,11,?,55,3,-4
COC(=O)[C@H]1[C@H]2C[C@H]3c4[nH]c5ccccc5c4CCN3C[C@H]2CC[C@@H]1O,6,-8,-1,-2,41,-10,4,-15,1
CCCCCOc1ccc(C(=O)NCC(=O)NCC(=O)OCC)cc1,1,-56,-6,-3,38,-4,-2,-4,11
C/C(CCN1CCCCc2nc(C)c(C)cc21)=N\O[C@@H](C)CN1CCCCc2nc(C)c(C)cc21,-1,-1,0,0,7,-8,-2,-28,-1
CCOC(=O)/C(C#N)=C1\Nc2ccccc2N=C1N(CC(C)C)CC(C)C,-1,29,-3,6,9,-12,-5,-26,1
O=C(CCN1C(=O)c2ccccc2C1=O)OCN1C(=O)c2ccccc2C1=O,1,-22,0,6,22,0,-2,-2,0
COC(=O)C(NC(=O)c1ccccc1)(Nc1nccs1)C(F)(F)F (stereo unspecified),2,9,1,-1,11,-4,-6,-21,0
O=C(/C=C/c1ccccc1)c1ccccc1O,-3,-55,-3,-3,16,16,10,-16,-2
CC(C)Sc1nc(N2CCCC2)c2c(c1C#N)CC(C)(C)OC2,2,36,-1,2,14,-31,-8,-6,-6
CC(=O)c1ccc(O)c(CO)c1,0,-2,3,1,8,-16,-7,-26,-1
CCCCOC(=O)CSc1nc(N)c(C#N)c(-c2ccc(OC)cc2)c1C#N,-3,-26,0,25*,6,-31,-13,-26,2
Cc1oc2cc(O)ccc2c(=O)c1-c1cnn(-c2ccccc2)c1,-2,-77,-1,-1,23,-1,14,-28,-10
OCCCc1nc2ccccc2n1CCc1ccccc1,-2,-9,0,-2,37,-1,3,-18,-3
COC(=O)C(NC(C)=O)(Nc1ccccn1)C(F)(F)F (stereo unspecified),-1,4,0,4,17,2,-4,-5,5
C=CCSc1nnc2n(CCc3ccccc3)c(=O)c3c4c(sc3n12)COC(C)(C)C4,-4,-23,-1,3,10,3,2,-28,-6
COC(=O)c1ccc(Oc2nc3ccccc3n3c(C)nnc23)cc1,-3,-33,9,nt,13,9,-3,nt,nt
COC(=O)c1ccc(Cn2c(O)c(N=O)c3ccccc32)o1,-1,-12,1,2,-3,-42,-24,-9,-6
Cc1cc(C)n(C(=O)CNC(=O)CCc2ccccc2)n1,4,19,0,2,11,-11,-2,29,2
CCCC(CCC(=O)Nc1ccc(C(=O)OC)cc1)C(=O)O (stereo unspecified),4,7,-6,4,-2,-1,1,-18,-3
CCC1=Nc2ccccc2NC2=C1C(=O)CCC2,-6,30,0,2,-7,31,5,-11,7
Cn1ncc(N=Cc2c(O)ccc3ccccc23)c1C(=O)N1CCOCC1,-6,-11,3,1,15,16,4,-9,1
COC(=O)c1[nH]c2ccc(Cl)cc2c1NC(=O)C1CC1,-2,15,-1,-1,27,-9,2,-14,-5
Cc1nccn1CC1CCc2c(c3ccccc3n2C)C1=O (stereo unspecified),0&-1,-21&4,-3&-1,-2,9&29,-13&-6,1&-3,-6,6
COc1ccccc1C(=O)N1CCN(Cc2ccc3c(c2)OCO3)CC1,1,10,-2,2,11,2,-6,-20,6
Cc1c2c([n+]3n1CCC3)CC(C)(C)CC2=O,1,18,-1,-1,29,-8,-5,18,1
C=C(C)CC1N(c2cccc(OC)c2)C(=O)C2C(C(=O)O)C3C=CC21O3 (stereo unspecified),0,-3,nt,1,30,3,2,-14,7
CCN(CC)CCCN1C(=O)C(=O)/C(=C(/O)c2ccccc2)C1c1cc(OC)ccc1OC (stereo unspecified),-3,-3,1,nt,-2,-15,-6,nt,nt
CC(=O)Nc1ccc(S(=O)(=O)Nc2nc3n(n2)C(c2ccccc2)CC(=O)N3)cc1 (stereo unspecified),-1,15,-2,-2,18,15,0,-32,2
CCN(CC)CCN1C(=O)c2cccc3cc(N)cc(c23)C1=O,1,-53,0,4,11,-8,6,-28,13
CC1(C)Nc2ccc(O)cc2-c2c1ssc2=S,-37,27,36,10,21,-52,-39,-26,0
Cc1nc(-c2cn[nH]c2)c2cc(C)oc2n1,-7,18,6,-4,-1,-4,1,9,-1
O=C1CC(c2ccccc2)NC(=O)N1 (stereo unspecified),1,-17,0,2,10,-10,-2,7,0
CC(C)=CCC(C)(C)CNC(=O)NC1CCCCC1,3,-21,3,3,15,7,-5,-8,1
Oc1cc(O)c2c(c1)O[C@H](c1ccc(O)c(O)c1)[C@H](O)C2,0,-8,-2,-4,10,-3,-7,-21,-12
CCN(CC)C(=O)c1sc2nc(-c3cccs3)cc(-c3cccs3)c2c1N,2,17,0,3,5,0,-4,-14,2
